# gsp agonist = gsp mutant agonism; gsp mutant cells, cAMP HTRF, 30 min; control for the full effect not named in the record; Potency, µM (series often up to 76.9 µM), without a hit: at the top dose activation (cAMP increase), most hits filed as activators; 0.13% of 340,000 active; active = well fitted activation curve with a large enough effect; inconclusive = small, poorly fitted or top-dose-only effect, or another doubt; inactive = no such curve, though single readings can be large or run the other way; cell line not stated here;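 also: phosphodiesterase inhibitor Ro 20-1724 added with compounds to block cAMP breakdown; potency is read from the fitted curve at half-maximal effect; nearly all actives have a fitted effect of over 60% in size; about a fifth of the inactives were tested at one dose only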
#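 Cells in DMEM/10% FBS with G418 were pretreated with compounds in DMSO plus […] (300 uM stock) for 30 min at 37C. cAMP was measured by HTRF (cAMP-d2 plus anti-cAMP antibody-K) after 30 min at room temperature.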
# D2 potentiator = human D2 receptor positive allosteric modulation. P14416. AID 624464. DiscoveRx D2 beta-arrestin cells, luminescence, 90 min; 100% = 57 uM dopamine signal. potentiation, % (no concentration beside the values). 0.23% of 360,000 active; active = potentiation of 50% or more; inconclusive = 30% to 50%; inactive = 30% or less;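 also: compound concentration not given in the record; tested on top of an EC20 dose of dopamine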
#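 D2 cells co-treated with compound plus 50 nM dopamine (EC20) for 90 min at 37 deg C to detect potentiation. Beta-arrestin recruitment was read as enzyme-fragment luminescence after 1 h at ambient temperature. Full response was set by 57 uM dopamine.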
# TRPV1 potentiator = enhances activation of the human vanilloid receptor TRPV1; potentiation, % at 8.33 µM; Q8NER1; TRPV1-expressing cells, Fluo-8 calcium influx, capsaicin EC20 potentiation; host cell line not named in the record; control for the full effect not named in the record; 0.02% of 320,000 active; active means potentiation above 80%; inconclusive means 30% to 80%; inactive means below 30%; also: 0% is about no effect
# Target sequence (Q8NER1 whole entry, looked up): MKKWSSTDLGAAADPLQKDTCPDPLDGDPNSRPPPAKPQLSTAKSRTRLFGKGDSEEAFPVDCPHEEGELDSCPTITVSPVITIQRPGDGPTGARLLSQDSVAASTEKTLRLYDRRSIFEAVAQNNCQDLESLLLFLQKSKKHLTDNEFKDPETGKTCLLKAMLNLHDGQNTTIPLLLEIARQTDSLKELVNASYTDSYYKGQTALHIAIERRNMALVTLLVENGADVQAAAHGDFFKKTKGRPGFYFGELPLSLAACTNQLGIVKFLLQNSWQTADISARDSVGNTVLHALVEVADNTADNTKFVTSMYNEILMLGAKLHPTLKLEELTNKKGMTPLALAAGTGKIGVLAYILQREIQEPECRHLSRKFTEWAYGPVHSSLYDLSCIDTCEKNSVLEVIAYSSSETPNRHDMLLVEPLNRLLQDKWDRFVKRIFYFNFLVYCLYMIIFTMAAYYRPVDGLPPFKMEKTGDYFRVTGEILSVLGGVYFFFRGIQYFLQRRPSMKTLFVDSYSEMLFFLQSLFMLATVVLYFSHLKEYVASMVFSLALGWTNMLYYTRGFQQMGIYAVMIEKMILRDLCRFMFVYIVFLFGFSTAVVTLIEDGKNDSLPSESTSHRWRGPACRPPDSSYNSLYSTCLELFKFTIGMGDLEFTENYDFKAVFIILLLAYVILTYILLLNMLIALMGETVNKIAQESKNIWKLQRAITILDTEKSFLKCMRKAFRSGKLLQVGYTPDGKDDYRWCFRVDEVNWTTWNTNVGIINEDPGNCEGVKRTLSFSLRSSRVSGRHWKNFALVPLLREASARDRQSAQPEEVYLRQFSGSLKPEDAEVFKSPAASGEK
#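 Cells expressing TRPV1 were dye-loaded with Fluo-8 and read kinetically: 10 s baseline, 3 min after compound (agonist portion), then 2 min after EC20 capsaicin (allosteric enhancer portion). Calcium-bound dye fluorescence at 480/520 nm.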
# Menin-MLL FL inh = displaces fluorescein MLL peptide from human menin; Fluorescence polarization, fluorescein-MLL peptide displacement from menin; FP activity change, % at 61.4 µM; 290,000 tested, under 10 active; AID 1766; inconclusive = falling polarisation curve, or a change in total fluorescence; inactive = total fluorescence flat and polarisation flat or rising; no compound was filed as active; the % refers to the polarisation; negative = inhibition;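 also: % of control where 0% means no effect; inhibitors lower the polarisation; unlabelled MLL peptide was the positive control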
# ClpP mod = qHTS Assay for Activators of ClpP; ATP-dependent Clp protease proteolytic subunit (Bacillus subtilis (strain 168)), P80244; purified B. subtilis ClpP, FRET peptide cleavage, 20 min; Potency, µM (highest dose often 57.5 µM), without a hit: at the highest dose activity change, negative = active; 1.9% of 340,000 active; AID 651965, 2013; active = well fitted falling curve with a large enough effect; inconclusive = small, poorly fitted or top-dose-only effect; inactive = no such curve, though single readings can be large or run the other way; also: potency is read from the fitted curve at half-maximal effect; the source files actives as falling curves though it sought activators and does not explain the sign; nearly all actives have a fitted effect of over 65% in size; many hits overshoot -100%
# Target sequence (P80244 whole entry, looked up): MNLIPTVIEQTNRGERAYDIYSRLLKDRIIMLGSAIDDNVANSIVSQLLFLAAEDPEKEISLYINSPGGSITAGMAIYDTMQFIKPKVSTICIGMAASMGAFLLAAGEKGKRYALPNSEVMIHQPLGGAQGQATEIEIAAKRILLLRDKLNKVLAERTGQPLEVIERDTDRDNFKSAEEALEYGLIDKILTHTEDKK
#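 Purified B. subtilis ClpP, 10 microg/mL final in Tris/HCl pH8 with KCl, BSA, glycerol and Tween-20, cleaved an Abz/nitrotyrosine-quenched decapeptide. Fluorescence (ex 320, em 430) was read at 0 and 20 min at room temperature. Delta was normalized to 5.8 microM ADEP and DMSO/no-enzyme controls.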
# gsp antagonist = antagonizes gsp, the McCune-Albright syndrome mutation | 0.4% of 340,000 active | gsp-mutant cells, cAMP HTRF, 30 min; control for the full effect not named in the record | AID 624288 | Potency, µM (titrated, usually from 76.9 µM), inactives show at the highest dose activity change, negative = inhibition, most hits filed as inhibitors; active = falling curve of any shape with a large fitted effect; inconclusive = falling curve, mostly with a smaller effect; inactive = flat or rising curve; cell line not stated here;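 also: intracellular cAMP measured with PDE inhibitor Ro 20-1724 present during compound exposure; potency is read from the fitted curve at half-maximal effect; % is scaled to controls: 0 for no effect and ±100 for the full control effect; nearly all actives have a fitted effect of over 65% in size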
#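 G418-selected cells were plated in DMEM/10% FBS for 16-24 h at 37C, then treated with compounds plus the PDE inhibitor […] (300 uM solution added) for 30 min at 37C. Intracellular cAMP was measured by HTRF after 30 min lysis at room temperature.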
# Sfp inh = inhibitors of Bacillus subtilis Sfp phosphopantetheinyl transferase. Q9F4F7. Biochemical Sfp PPTase activity, qHTS. Potency, µM, without a hit: max response, negative = inhibition, hits mostly inhibitors. 3.5% of 310,000 active. AID 1490; active = well fitted inhibition curve with a large enough effect; inconclusive = small, poorly fitted or top-dose-only effect, or another doubt; inactive = no such curve, though single readings can be large or run the other way;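 also: the enzyme is Sfp with the accession as filed and its product quenches rhodamine fluorescence; potency is read from the fitted curve at half-maximal effect; 0% = enzyme reaction without inhibitor and -100% = no enzyme wells; top concentration of the series not given in the record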
#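 Compounds were incubated with enzyme (final 15 nM) for 15 min at room temperature before substrate addition started the reaction. Fluorescence at 525 nm excitation, 598 nm emission was recorded immediately and after 30 minutes.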
# The depositor's hits bear a star; ? = inconclusive; / = no result given; & = joins results of further samples; [ ] = dose if it differs, or a comment.
SMILES,gsp agonist,D2 potentiator,TRPV1 potentiator,Menin-MLL FL inh,ClpP mod,gsp antagonist,Sfp inh
COc1ccc(C2=Nn3c(nnc3C3CCCCC3)SC2)cc1OC,2%,9,-25,2.2,0.2%,15%,-10%
COc1ccccc1OCC(=O)NCCSCc1ccccc1Cl,0%,-5,?,/,0.4%,12%,-11%
O=C(Cn1c(=O)oc2ccccc21)Nc1n[nH]c(=S)s1,1%,-13,6,0.2,-1.8%,3%,32µM*
CCn1cc(C(=O)NC2CCCCCC2)c(=O)c2ccc(C)nc21,8%,-12,17,-5.4,-2.4%,-3%,3%
CC1(c2cccc3ccccc23)NC(=O)N(CC(=O)NC2CCS(=O)(=O)C2)C1=O (stereo not given),-1%,-13,-14,5.8,-1.1%,3%,14%
CSCC[C@H](NC(=O)[C@H]1CC[C@H](CNC(=O)[C@@H]2CCCN2)CC1)C(=O)O,-11%,-7,?,-1.0,0.0%,7%,6%
CSc1cccc(NC(=S)N(CCC(C)C)C2CCN(C(C)=O)CC2)c1,?,-11,-2,0.2,/,-7%,-11%
S=c1[nH]nc(-c2cc(-c3ccsc3)n[nH]2)n1-c1cccc2ccccc12,8%,-5,4,-0.4,/,-13%,-15%
Cc1ccc(NC(=S)Nc2ccc(Br)cc2)cc1,2%,-16,-5,1.6,-2.2%,6%,-7%
CC1=CC(C)(C)N2C(=O)C3(C(C#N)=C(N)OC4=C3C(=O)CC(C)(C)C4)c3cc(C)cc1c32 (stereo not given),0%,-8,-5,-0.2,2.5%,0%,-4%
O=C(NCc1ccccc1)c1ccc(C(=O)N(C2CCCCC2)C2CCCCC2)cc1,-29%,-11,4,-1.3,-3.0%,-10%,7%
CC(C)COC(=O)N1CCCC1C(=O)Nc1nccs1 (stereo not given),-1%,-3,5,2.4,-3.0%,10%,7%
COc1ccc(C(=O)COC(=O)CN2C(=O)C3C4CCC(C4)C3C2=O)cc1 (stereo not given),-2%[15.4 µM],-4,7,0.7,1.0%,6%,19%
CC(Sc1nc2ccccc2c(=O)n1C)C(=O)NC1CCCCC1C (stereo not given),-82%[15.4 µM],15,-5,/,/,-4%,/
COCOCCn1cc(CN2CCS(=O)(=O)N(Cc3ccc(-c4ccc(Cl)cc4)cc3)C(C)C2=O)nn1 (stereo not given),-5%,-2,/,/,2.1%,/,/
COc1ccccc1/C=C/c1nc(S(=O)(=O)c2ccccc2)c(N2CCC(C(N)=O)CC2)o1,9%,-10,-4,2.8,3.7%,?,-5%
FC(F)(F)C(F)(F)C(F)(F)c1nnc2ccc(N3CCOCC3)nn12,-20%,-7,?,3.9,-11%,5%,11%
COc1ccc(C(=O)NNC2=Nc3cccc4cccc2c34)cc1,-2%[15.4 µM],-27,-1,5.5,/,-28%,13%
COC(=O)CNC(c1ccccc1)c1cc(Br)ccc1NC(=O)OCc1ccccc1 (stereo not given),?,-8,-20,7.4,-1.5%,4%,0%
CCOC(=O)C1=C(CN2CCN(C(=O)c3ccco3)CC2)NC(=O)NC1c1ccc(OC)cc1 (stereo not given),13%,-1,-2,-15,-1.4%,-8%,7%
O=C(c1cccc(S(=O)(=O)N2CCc3ccccc32)c1)N1CCN(c2ccccn2)CC1,10%[15.4 µM],-6,0,1.2,/,/,15%
O=C(Cn1ccc([N+](=O)[O-])n1)Nc1ccccn1,24%,1,5,1.2,0.3%,6%,11%
O=C(COC(=O)COc1ccc2ccccc2c1)Nc1cc(C(F)(F)F)ccc1N1CCOCC1,-12%,-1,-3,-2.5,-15%,1%,24%
Cc1cc(C)c2c(=O)[nH]c(SCC(=O)NCc3ccccc3)nc2n1,-1%,-11,17,-0.5,-11%,-1%,-3%
COc1cccc2[nH]c3c(=O)n(CCN(C)C)cnc3c12,23%,3,-6,0.4,25%,11%,4%
O=C(Cn1c(CN2CCCCC2)nc2ccccc2c1=O)NC1CCCCC1,-28%,-4,-11,0.1,-0.9%,11%,20%
Cc1ccc(S(=O)(=O)N2CC(=O)N3CCN(CCN)C3C2)cc1 (stereo not given),23%,-1,/,/,-13%,-6%,/
COc1ccc(N2CCN(C(=O)Cc3ccc(-n4c(=O)[nH]c5ccccc5c4=O)cc3)CC2)cc1,-21%,4,15,-0.9,-10%,-4%,?
CCOc1ccccc1C(=O)Nc1ccc(NC(=O)c2ccccc2)cc1,-4%,1,0,-3.4,1.3%,9%,17%
CCOC(=O)N1CCC(NC(=O)CSCc2cnn(-c3ccccc3)c2-n2cccc2)CC1,11%,26,-6,2.9,-2.5%,-5%,7%

# Entries of single compounds from above. Order of screens: gsp agonist	D2 potentiator	TRPV1 potentiator	Menin-MLL FL inh	ClpP mod	gsp antagonist	Sfp inh
# Record of `Cc1cc(C)c2c(=O)[nH]c(SCC(=O)NCc3ccccc3)nc2n1` → -1%	-11	17	-0.5	-11%	-1%	-3%
# Record of `O=C(COC(=O)COc1ccc2ccccc2c1)Nc1cc(C(F)(F)F)ccc1N1CCOCC1` → -12%	-1	-3	-2.5	-15%	1%	24%
# Record of `O=C(Cn1c(CN2CCCCC2)nc2ccccc2c1=O)NC1CCCCC1` → -28%	-4	-11	0.1	-0.9%	11%	20%

# Additional results:
SMILES,gsp agonist,D2 potentiator,TRPV1 potentiator,Menin-MLL FL inh,ClpP mod,gsp antagonist,Sfp inh
Cc1cc(C)nc(Nc2n[nH]c(-c3ccccc3Br)n2)n1,1%,-7,0,0.4,1.3%,10%,10%
O=C1/C(=C/c2cccnc2)CC/C1=C\c1cccnc1,-10%[15.4 µM],-5,-5,-4.9,/,-12%,8%
CCNC(=O)CC1C(=O)N(c2ccc(C)cc2)C(=O)N1CCc1ccc(OC)c(OC)c1 (stereo not given),-25%,-13,8,-1.1,-3.3%,17%,11%
O=S(=O)(c1ccccc1)N(CC(F)(F)F)c1ccc(C(O)(C(F)(F)F)C(F)(F)F)cc1,/,-8,/,0.1,1.1%&3.4%,/,26%
c1ccc(CNC2=NCCCCC2)cc1,-5%,-9,-19,-0.3,1.3%,17%,8%
O=C(NC1CCCCCC1)C(=S)N1CCOCC1,-3%[15.4 µM],-2,5,4.7,1.6%,11%,16µM*
COc1ccc(Nc2nc(N3CCCCC3)nc(N3CCCCC3)n2)c(OC)c1,-5%,-9,?,7.0,0.8%,4%,13%
COc1ccc(CCN(C)C2CCCN(S(=O)(=O)c3ccc(C)cc3)C2)cc1OC (stereo not given),-3%,-4,0,1.9,0.1%,-2%,11%
O=C(CN1C(=O)C2CCCCC2C1=O)OCC(=O)c1ccc(Cl)s1 (stereo not given),?,-14,-13,18,1.3%,0%,15%
CCn1c(=NC(=O)CSC(C)=O)sc2cc(F)ccc21,15%,-13,15,0.9,-0.3%,-19%,-13%
O=C(O)c1ccccc1-n1cccc1C(=O)O,3%[15.4 µM],-4,-1,3.3,/,17%,5%
Cc1ccc(CNC(=O)c2ccc(N(C)S(=O)(=O)c3ccccc3)cc2)cc1,28%,-5,-4,0.3,/,-5%,1%
O=S(=O)(NCCC(c1ccc(F)cc1)c1ccco1)c1ccccc1 (stereo not given),5%,-11,-1,0.9,-1.3%,-17%,-16%
COCCCNC(=O)c1c[nH]c2ccc(S(=O)(=O)N3CCC(C)CC3)cc2c1=O,-5%[15.4 µM],5,-1,3.7,/,-5%,10%
O=C(OCCN1CCOCC1)c1cccs1,3%,-2,0,-1.0,1.3%,6%,-10%
OCCNNC(=S)NC1CC2C=CC1C2 (stereo not given),-2%[15.4 µM],0,-7,-3.4,-0.1%,-5%,-12%
O=C(Oc1ccc(Br)cc1C(=S)N1CCOCC1)c1ccc([N+](=O)[O-])cc1[N+](=O)[O-],-8%[15.4 µM],56*,?,0.8,-17%,-17%,50µM*
CC(=O)Nc1ccc(NC2(C)C(=O)c3ccccc3C2=O)cc1,-27%,-10,-7,-0.1,-0.8%,-2%,6%
CCC(C)Sc1nc2c(cnn2-c2ccc(C)c(C)c2)c(=O)[nH]1 (stereo not given),1%,-3,?,1.7,0.6%,2%,-1%
Cc1cccc(NC(=O)CSc2cccc3cccnc23)c1C,11%,-3,16,-9.0,/,5%,7%
Cc1ccc(C2=NOC(c3nnc(-c4ccccc4)o3)C2)cc1 (stereo not given),?,-2,/,/,-0.1%,3%,/
O=C(c1ccco1)N1CCN(C(=S)Nc2ccc(F)c(Cl)c2)CC1,-25%,-9,4,/,1.1%,-14%,11%
Cc1nc(-c2ccc(NC(=O)C3CC3)cc2)cs1,-6%,-3,-2,3.0,/,-3%,3%
COc1cc(C)ccc1OCc1cc(C(=O)N(Cc2c(C)nn(C)c2C)C2CC2)no1,?,13,10,0.3,/,-9%,7%
COc1cccc(/C=N/NC(=O)c2cccc3ccccc23)c1,14%,-7,-4,-1.2,-5.6%,7%,7%
CCN(CC)S(=O)(=O)c1cccc2cccnc12,11%,0,3,0.6,-2.2%,-3%,21%
CCOc1ccccc1CNC(=O)Cn1nc(C)c2c(C)n(-c3ccc(C)cc3)nc2c1=O,-15%,-3,7,-0.9,-7.6%,-18%,-26%
CN(CCc1ccccn1)c1ccc([N+](=O)[O-])cn1,5%[15.4 µM],-3,13,0.5,0.0%,10%,3%
NC1=NC[C@H](Cc2ccc(O)cc2)N1CCc1cccc2ccccc12,18%,-21,29,0.6,-0.2%,-8%,-9%
COC(=O)c1ccccc1NC(=O)CNCCc1ccc(OC)c(OC)c1,2%,-5,1,2.7,/,5%,-27%
O=C(NCCO)Nc1ccc2nc(-c3ccco3)c(-c3ccco3)nc2c1,/,/,6,?,/,/,18µM*
CSc1ncccc1C(=O)OCc1ccc(Br)cc1,-8%[15.4 µM],-5,?,0.2,-1.5%,1%,-19%
COc1cccc(C(=O)NC2CCN(C(=O)N3CCCCC3)CC2)c1,?,-14,-3,-0.9,1.0%,-3%,15%
CC(=O)N(Cc1ccc(Br)cc1)c1cccc(C)c1C,-1%[15.4 µM],-8,0,2.4,/,4%,15%
COc1ccc(C)cc1NC(=O)C(OC(=O)CNC(=O)c1cccc(F)c1)c1ccccc1 (stereo not given),5%,-7,-8,1.8,-1.1%,1%,-4%
O=C(Cn1cnc2ccccc2c1=O)Nc1nnc(SCc2ccccc2)s1,-24%,2,10,1.6,0.8%,3%,6%

# Assay outcomes from PubChem.
